HSV augment = enhancers of HSV replication in host cells, fold increase, host cell viability. maximum fold increase. HSV replication augmentation in cells. AID 1956, 2009. 220,000 tested, 0.005% active;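 active means peak rise of 1.5-fold or more in the series; tested in PC3 cells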;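 further: first round at 10 µM; read as green reporter fluorescence; hits show the peak of a series up to 25 µM; 1 = signal of infected wells without compound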
RGS16-Gao HTS = modulators of RGS16 binding to Galphao, primary screen, biochemical, human proteins, multiplexed bead flow cytometry; 220,000 tested, 0.38% active; bead-based flow cytometry RGS16-Galphao binding, fluorescence; actives lie on both sides; AID 1441, 2008; binding response (% of control), % at 10 µM; Regulator of G-protein signaling 16 (Homo sapiens) + Guanine nucleotide-binding protein …;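 active means below 25% or above 175%, edge rows of some plates excepted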;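 further: Galphao activated by GDP with aluminum fluoride before binding; 100% = wells without compound and 0% = beads without RGS; some results beyond the cut were filed as inactive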
Target sequence (O15492 whole entry, looked up): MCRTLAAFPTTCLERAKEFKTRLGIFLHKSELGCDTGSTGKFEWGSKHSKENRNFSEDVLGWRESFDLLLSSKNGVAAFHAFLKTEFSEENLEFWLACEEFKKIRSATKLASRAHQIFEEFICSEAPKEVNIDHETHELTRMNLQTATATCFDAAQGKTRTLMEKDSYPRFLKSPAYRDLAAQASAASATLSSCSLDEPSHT
Target sequence (P09471 whole entry, looked up): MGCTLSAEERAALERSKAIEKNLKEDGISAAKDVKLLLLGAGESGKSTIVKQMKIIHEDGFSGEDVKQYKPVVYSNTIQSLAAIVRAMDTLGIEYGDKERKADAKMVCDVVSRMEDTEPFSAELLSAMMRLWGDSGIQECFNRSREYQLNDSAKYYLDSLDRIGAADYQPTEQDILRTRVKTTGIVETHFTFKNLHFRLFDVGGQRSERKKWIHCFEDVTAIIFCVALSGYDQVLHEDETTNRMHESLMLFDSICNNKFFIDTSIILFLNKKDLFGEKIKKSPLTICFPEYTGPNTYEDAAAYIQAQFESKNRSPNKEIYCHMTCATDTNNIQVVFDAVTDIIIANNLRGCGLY
Insulin prom inh = inhibitors of insulin promoter-driven GFP, primary screen, imaging, TRM-6 cells (human fetal islet line), eGFP reporter, cell count; reporter expression induced with tamoxifen; inhibition, % at 2 µM; 130,000 tested, 0.9% active; AID 1273, 2008;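 active means inhibition above the mean plus 3 SD, with well images judged a real hit on visual review, cut at about 60% in these data, passing the limit was not always enough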
PKD1 inh = inhibitors of human PKD1 kinase, biochemical, fluorescence polarization. Serine/threonine-protein kinase D1 (Homo sapiens), Q15139. PKD1 kinase fluorescence polarization assay. inhibition, %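 (about 10 µM by stock and volumes)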. 200,000 tested, 0.056% active;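 active means inhibition of 50% or more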;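 further: controls were vehicle for no effect and a reference inhibitor for full effect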
GALR2 agonist = GALR2 receptor agonists, primary screen, cell-based | 140,000 tested, 0.48% active | AID 803, 2007 | Galanin receptor type 2 (Homo sapiens), O43603 | GALR2-expressing cells, agonist activation read-out | activation, %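 (tested at 5 µM)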;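 active means above mean plus 3 SD of all compounds, about 5% in these data, not always enough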;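 further: 0% = vehicle buffer wells and 100% = reference agonist at full effect; tested in CHO reporter cells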
Target sequence (O43603 whole entry, looked up): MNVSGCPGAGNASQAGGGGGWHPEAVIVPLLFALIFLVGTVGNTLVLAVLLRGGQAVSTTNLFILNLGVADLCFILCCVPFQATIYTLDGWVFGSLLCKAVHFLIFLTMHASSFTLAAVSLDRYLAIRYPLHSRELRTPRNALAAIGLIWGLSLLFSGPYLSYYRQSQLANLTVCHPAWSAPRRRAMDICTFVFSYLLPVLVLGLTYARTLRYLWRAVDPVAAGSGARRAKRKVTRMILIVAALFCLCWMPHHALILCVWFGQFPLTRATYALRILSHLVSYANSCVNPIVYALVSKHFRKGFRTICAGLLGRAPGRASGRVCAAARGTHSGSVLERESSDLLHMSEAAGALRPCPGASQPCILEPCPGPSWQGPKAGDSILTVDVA
Insulin prom inh cell count = further read-out of Insulin prom inh, marked with its call; normalized cell count, %; measured here: cell count, toxicity; reference of the scale not given here;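 cells exposed to compound for 48 h; stained nuclei by imaging scaled within each plate; lower means fewer cells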
HSV augment primary fold = further read-out of HSV augment, marked with its call; fold increase; compound at 10 µM; measured here: primary screen fold increase 10 uM; tested in PC3 cells;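 GFP signal in the first replicate; 1 = infected wells without compound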
Active calls of the source: *.

Results for CCOC(=O)C1=C(C)N(Cc2ccccc2)C(=O)NC1c1ccc(OC)cc1 (stereo unspecified) ?
HSV augment: inactive; RGS16-Gao HTS: 92; Insulin prom inh: 15; PKD1 inh: 2; GALR2 agonist: -0.6; Insulin prom inh cell count: 134; HSV augment primary fold: 0.81

How did COc1ccc(Cc2nnc(NC(=O)c3cccc(C)c3)s2)cc1 do in these assays?
HSV augment: inactive; RGS16-Gao HTS: 115; PKD1 inh: -9; HSV augment primary fold: 0.87

Results for O=C(CCS(=O)(=O)c1ccc(Br)cc1)N1CCN(c2ccccc2F)CC1 ?
HSV augment: inactive; RGS16-Gao HTS: 100; PKD1 inh: -4; GALR2 agonist: -0.5; HSV augment primary fold: 0.93

Results for CC(=O)Nc1ccc(S(=O)(=O)N2CCN(c3ccc([N+](=O)[O-])c(NCCN4CCOCC4)c3)CC2)cc1 ?
HSV augment: inactive; RGS16-Gao HTS: 99; PKD1 inh: 6; GALR2 agonist: -0.5; HSV augment primary fold: 0.95

How did O=C(Cc1cccs1)Nc1nnc(SCc2ccc(F)cc2)s1 do in these assays?
RGS16-Gao HTS: 103; PKD1 inh: 6; GALR2 agonist: 1.1

What do the screens show for `CCOC(=O)C1=C(Nc2ccccc2)OCC1=O`?
HSV augment: inactive; RGS16-Gao HTS: 100; Insulin prom inh: -32; PKD1 inh: -3; GALR2 agonist: -2.0; Insulin prom inh cell count: 74; HSV augment primary fold: 1

How did CCOC(=O)C1=C(C)NC(SCc2cc(=O)[nH][nH]2)=C(C#N)C1c1cccs1 (stereo unspecified) do in these assays?
HSV augment: inactive; RGS16-Gao HTS: 103; Insulin prom inh: -244; PKD1 inh: 4; GALR2 agonist: -0.8; Insulin prom inh cell count: 64; HSV augment primary fold: 0.8

Results for CC(C)N1C(=O)/C(=C/c2nc3ccccc3c(=O)n2-c2ccccc2)c2ccccc21 ?
HSV augment: inactive; RGS16-Gao HTS: 102; Insulin prom inh: 39; PKD1 inh: -8; GALR2 agonist: -0.2; Insulin prom inh cell count: 98; HSV augment primary fold: 0.71

Results for CCOC(=O)N1CCN(C(=O)C2CCN(S(=O)(=O)c3ccc(Cl)cc3)CC2)CC1 ?
HSV augment: inactive; RGS16-Gao HTS: 113; Insulin prom inh: 17; PKD1 inh: 1; GALR2 agonist: -1.1; Insulin prom inh cell count: 109; HSV augment primary fold: 0.79

What do the screens show for `C=CCOc1ccc(CNC(C)(C)CO)cc1OCC`?
HSV augment: inactive; RGS16-Gao HTS: 112; Insulin prom inh: 26; PKD1 inh: -6; GALR2 agonist: -0.2; Insulin prom inh cell count: 93; HSV augment primary fold: 0.81

How did C=CCc1cccc(C=Nc2ccc(Br)cc2)c1O do in these assays?
HSV augment: inactive; RGS16-Gao HTS: 98; Insulin prom inh: -114; PKD1 inh: -2; Insulin prom inh cell count: 96; HSV augment primary fold: 0.97

What do the screens show for `COc1ccc(/C=N/NC(=O)c2ccc(CSc3nc(C)cc(C)n3)cc2)cc1O`?
HSV augment: inactive; RGS16-Gao HTS: 99; PKD1 inh: -2; GALR2 agonist: -0.8; HSV augment primary fold: 0.81

How did Cc1ccc(-c2nn(-c3ccccc3)cc2C(=O)OCC(=O)Nc2ncc(Cl)cc2Cl)cc1 do in these assays?
HSV augment: inactive; RGS16-Gao HTS: 104; Insulin prom inh: 32; PKD1 inh: -5; GALR2 agonist: -1.7; Insulin prom inh cell count: 99; HSV augment primary fold: 0.99

How did Cc1ccc(CNC(=O)Cn2nnc3ccccc3c2=O)cc1 do in these assays?
HSV augment: inactive; RGS16-Gao HTS: 102; Insulin prom inh: 8; PKD1 inh: 2; Insulin prom inh cell count: 153; HSV augment primary fold: 0.9

Results for CCOC(=O)C1CCCN(c2c(Nc3cc(C)cc(C)c3)c(=O)c2=O)C1 (stereo unspecified) ?
HSV augment: inactive; RGS16-Gao HTS: 90; PKD1 inh: -4; GALR2 agonist: -1.6; HSV augment primary fold: 0.89

Results for COc1cccc(NC(=O)c2ccc(-c3ccc([N+](=O)[O-])cc3)o2)c1 ?
HSV augment: inactive; RGS16-Gao HTS: 74; Insulin prom inh: 0; PKD1 inh: 3; Insulin prom inh cell count: 128; HSV augment primary fold: 0.96

Results for Cc1ccccc1-c1ccc(=O)n(CC(=O)Nc2ccc(S(=O)(=O)N(C)C)cc2)n1 ?
HSV augment: inactive; RGS16-Gao HTS: 107; Insulin prom inh: 11; PKD1 inh: 0; Insulin prom inh cell count: 140; HSV augment primary fold: 0.95

What do the screens show for `NC(=O)N\N=C/C=C/C=C/c1ccc(F)cc1`?
HSV augment: inactive; RGS16-Gao HTS: 97; HSV augment primary fold: 1.1

Results for COc1c(F)c(F)c(C(=O)Nc2ccc(-c3nc4ccccc4[nH]3)cc2)c(F)c1F ?
HSV augment: inactive; RGS16-Gao HTS: 103; PKD1 inh: -4; HSV augment primary fold: 0.94

What do the screens show for `OCCN1CCN(C2Cc3cc(Cl)ccc3Sc3ccc(Cl)cc32)CC1` (stereo unspecified) (tested in a mixture with another compound)?
RGS16-Gao HTS: 95; Insulin prom inh: 14; PKD1 inh: -1; GALR2 agonist: -0.6; Insulin prom inh cell count: 126

What do the screens show for `CCCN1CNC(=S)N(c2cc(C)ccc2C)C1`?
HSV augment: inactive; RGS16-Gao HTS: 107; Insulin prom inh: -39; PKD1 inh: 1; GALR2 agonist: -0.4; Insulin prom inh cell count: 206; HSV augment primary fold: 0.73

Results for COc1cccc(Oc2coc3cc(OC(=O)N4CCOCC4)ccc3c2=O)c1 ?
HSV augment: inactive; RGS16-Gao HTS: 105; PKD1 inh: 6; HSV augment primary fold: 1

What do the screens show for `Cc1cccc(N(C)S(=O)(=O)c2ccc3[nH]c(=O)c(=O)[nH]c3c2)c1`?
HSV augment: inactive; RGS16-Gao HTS: 90; Insulin prom inh: 27; PKD1 inh: -7; GALR2 agonist: -1.8; Insulin prom inh cell count: 98; HSV augment primary fold: 0.69

How did COc1cc(NS(=O)(=O)c2ccc(NC(=O)C34CC5CC(CC(C5)C3)C4)cc2)ncn1 do in these assays?
HSV augment: inactive; RGS16-Gao HTS: 98; PKD1 inh: 4; GALR2 agonist: -0.5; HSV augment primary fold: 0.93

How did COC(=O)c1sc(NC(=O)c2ccc([N+](=O)[O-])o2)c(C#N)c1C do in these assays?
HSV augment: inactive; RGS16-Gao HTS: 87; HSV augment primary fold: 0.88

Results for CCOc1cccc(NC(=O)c2cccc(F)c2)c1 ?
HSV augment: inactive; RGS16-Gao HTS: 101; Insulin prom inh: -25; PKD1 inh: -2; Insulin prom inh cell count: 113; HSV augment primary fold: 1

Results for COC(=O)c1cccc(Cn2nc(C)c([N+](=O)[O-])c2C)c1 ?
HSV augment: inactive; RGS16-Gao HTS: 105; Insulin prom inh: 0; PKD1 inh: -2; Insulin prom inh cell count: 117; HSV augment primary fold: 1

How did CC(C)CCSc1nc2c(c(=O)[nH]c(=O)n2C)n1CCc1ccccc1 do in these assays?
HSV augment: inactive; RGS16-Gao HTS: 90; Insulin prom inh: 11; PKD1 inh: 1; GALR2 agonist: -1.5; Insulin prom inh cell count: 99; HSV augment primary fold: 0.98

How did C/C(=N\N1CCN(C2c3ccccc3-c3ccccc32)CC1)c1ccco1 do in these assays?
HSV augment: inactive; RGS16-Gao HTS: 106; Insulin prom inh: 8; PKD1 inh: 6; GALR2 agonist: -0.4; Insulin prom inh cell count: 155; HSV augment primary fold: 0.86

Results for CCOC(=O)c1sc(=S)n(-c2cccc(C(F)(F)F)c2)c1SC ?
HSV augment: inactive; RGS16-Gao HTS: 103; Insulin prom inh: 23; PKD1 inh: -9; GALR2 agonist: -2.4; Insulin prom inh cell count: 136; HSV augment primary fold: 0.76

2 records picked at random from the list so far, as already listed:
How did COC(=O)c1sc(NC(=O)c2ccc([N+](=O)[O-])o2)c(C#N)c1C do in these assays?
HSV augment: inactive; RGS16-Gao HTS: 87; HSV augment primary fold: 0.88

Results for CCOc1cccc(NC(=O)c2cccc(F)c2)c1 ?
HSV augment: inactive; RGS16-Gao HTS: 101; Insulin prom inh: -25; PKD1 inh: -2; Insulin prom inh cell count: 113; HSV augment primary fold: 1

The results go on:
How did CCOc1ccc2nc(N/C(N)=N/C(=S)Nc3ccc(C)c(C)c3)nc(C)c2c1 do in these assays?
HSV augment: inactive; RGS16-Gao HTS: 106; Insulin prom inh: -8; PKD1 inh: -7; GALR2 agonist: -0.5; Insulin prom inh cell count: 144; HSV augment primary fold: 0.84

Results for CCOC(=O)c1sc(N(Cc2ccccc2)C(=O)COC(=O)c2ccccc2O)nc1C ?
HSV augment: inactive; RGS16-Gao HTS: 93; Insulin prom inh: 43; PKD1 inh: 3; GALR2 agonist: -0.2; Insulin prom inh cell count: 144; HSV augment primary fold: 0.9

How did Oc1c(Cl)cc(Cl)cc1CNc1ccc(Br)cn1 do in these assays?
HSV augment: inactive; RGS16-Gao HTS: 104; Insulin prom inh: -42; PKD1 inh: 8; GALR2 agonist: -1.4; Insulin prom inh cell count: 78; HSV augment primary fold: 1

How did CC(C)OP(=O)(c1ccccc1)c1ccccc1 do in these assays?
HSV augment: inactive; RGS16-Gao HTS: 74; Insulin prom inh: 22; PKD1 inh: -3; GALR2 agonist: -0.8; Insulin prom inh cell count: 59; HSV augment primary fold: 1

Results for CC1CCCCC1NC(=S)NC(=O)c1ccccc1Br (stereo unspecified) ?
HSV augment: inactive; RGS16-Gao HTS: 108; Insulin prom inh: 0; PKD1 inh: -2; GALR2 agonist: 0.3; Insulin prom inh cell count: 87; HSV augment primary fold: 1

What do the screens show for `Fc1cnc(N2CCc3ccccc32)nc1N1CCc2ccccc21`?
HSV augment: inactive; RGS16-Gao HTS: 98; Insulin prom inh: 43; PKD1 inh: -9; GALR2 agonist: -0.9; Insulin prom inh cell count: 104; HSV augment primary fold: 0.88

How did CN(CCCNC(=O)C1CCC(=O)N1Cc1ccc(F)cc1)c1ccccc1 (stereo unspecified) do in these assays?
HSV augment: inactive; RGS16-Gao HTS: 98; PKD1 inh: -15; GALR2 agonist: -3.3; HSV augment primary fold: 1

Results for CN(C(=O)Nc1ccc(C(C)(C)C)cc1)C1CCCCC1 ?
HSV augment: inactive; RGS16-Gao HTS: 99; HSV augment primary fold: 1

Results for O=C(Nc1cc(C(=O)N2CCOCC2)ccc1N1CCCC1)c1cccs1 ?
HSV augment: inactive; RGS16-Gao HTS: 102; Insulin prom inh: 41; PKD1 inh: -4; GALR2 agonist: 1.3; Insulin prom inh cell count: 102; HSV augment primary fold: 0.84

Results for Cc1ccc(N(C(=O)c2ccccn2)C2(C(=O)NC3CCCC3)CCCCC2)cc1 ?
HSV augment: inactive; RGS16-Gao HTS: 105; Insulin prom inh: -35; PKD1 inh: -2; GALR2 agonist: -0.5; Insulin prom inh cell count: 95; HSV augment primary fold: 1.1

Next part, starting with the last 2 of the part before.
Results for O=C(Nc1cc(C(=O)N2CCOCC2)ccc1N1CCCC1)c1cccs1 ?
HSV augment: inactive; RGS16-Gao HTS: 102; Insulin prom inh: 41; PKD1 inh: -4; GALR2 agonist: 1.3; Insulin prom inh cell count: 102; HSV augment primary fold: 0.84

Results for Cc1ccc(N(C(=O)c2ccccn2)C2(C(=O)NC3CCCC3)CCCCC2)cc1 ?
HSV augment: inactive; RGS16-Gao HTS: 105; Insulin prom inh: -35; PKD1 inh: -2; GALR2 agonist: -0.5; Insulin prom inh cell count: 95; HSV augment primary fold: 1.1

What do the screens show for `CCOc1c2ccc(C(=O)NCc3ccco3)cc2nn1CC`?
HSV augment: inactive; RGS16-Gao HTS: 100; PKD1 inh: -4; GALR2 agonist: -1.0; HSV augment primary fold: 0.68

Results for CC(C)n1cc(/C=C2\NC(=O)N(c3cccc(Cl)c3)C2=O)c2ccccc21 ?
HSV augment: inactive; RGS16-Gao HTS: 100; Insulin prom inh: 17; PKD1 inh: 0; GALR2 agonist: -2.0; Insulin prom inh cell count: 83; HSV augment primary fold: 0.74

What do the screens show for `CCc1c(C)sc(NC(=O)c2cc(C3CC3)on2)c1C#N`?
HSV augment: inactive; RGS16-Gao HTS: 46; PKD1 inh: -16; HSV augment primary fold: 0.78

How did O=C(CNC(=O)c1cccc(F)c1)OCC(=O)N1CCCCC1 do in these assays?
HSV augment: inactive; RGS16-Gao HTS: 98; PKD1 inh: -13; GALR2 agonist: -2.1; HSV augment primary fold: 1
